RE007 growth inh – less growth of the S. pombe RE007 Vpr strain | 360,000 tested, 0.21% active | S. pombe RE007 Vpr strain, BacTiter-Glo ATP luminescence, 24 h; control for the full effect not named in the record | Potency, µM (doses to about 92.2 µM), without a hit: top-dose activity change, negative = less growth; active = well fitted falling curve with a large enough effect; inconclusive = small, poorly fitted or top-dose-only effect; inactive = no such curve, though single readings can be large or run the other way;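 note: % is set by controls: 0 for no effect and ±100 for the full control effect; nearly all actives have a fitted effect of over 50% in size; the assay follows cell death caused by Vpr and the record does not say whether a fall means rescue or toxicity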
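Fission yeast strain RE007, carrying one chromosomally integrated HIV-1 vpr copy, was seeded at OD 0.01 in PMG+AL medium with 23 nL pinned compound. After 24 h at 30 °C and 99% humidity, viability was read by BacTiter-Glo luminescence.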
Lassa entry inh – Lassa virus entry inhibition | Lassa virus pseudotype entry inhibition, cell reporter; control for the full effect not named in the record | Potency, µM (doses to about 37.9 µM), for the others: at the top dose activity change, negative = inhibition, most hits filed as inhibitors | 300,000 tested, 1.2% active; active means well fitted inhibition curve with a large enough effect; inconclusive means small, poorly fitted or top-dose-only effect, or effect the other way; inactive means flat fitted curve, though single readings scatter; tested in HEK293 cells; note: % is set by controls: 0 for no effect and ±100 for the full control effect; nearly all actives have a fitted effect of over 50% in size; luciferase read-out
NS1 inh – blocks influenza NS1 protein function. S. cerevisiae slowed by influenza A NS1, growth recovery by OD600. Potency, µM (highest dose often 46.1 µM), without a hit: top-dose activity, positive = more growth. 270,000 tested, 0.4% active; active means well fitted rising curve with a large enough effect; inconclusive means small, poorly fitted or top-dose-only effect; inactive means no such curve, though single readings can be large or run the other way; note: nearly all actives have a fitted effect of over 50% in size
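Compounds were scored for reversing the slow growth caused by influenza A NS1 in S. cerevisiae, measured by optical density at 600 nm. Assay medium contained 2% galactose at pH 6.0; NS1-free yeast of the same strain were the positive control.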
Cruzain inh noDet – cruzain (T. cruzi) inhibition without detergent | 200,000 tested, 2.3% active | P25779 | Potency, µM, inactives show max response, negative = inhibition, actives largely listed as inhibitors | purified cruzain, Z-FR-AMC fluorescence, no detergent;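 note: plate controls were enzyme without inhibitor for no effect and buffer without enzyme for full effect; nearly all actives have a fitted effect of over 40% in size; top concentration of the series not given in the record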
Target sequence (P25779 123-467 limits assumed): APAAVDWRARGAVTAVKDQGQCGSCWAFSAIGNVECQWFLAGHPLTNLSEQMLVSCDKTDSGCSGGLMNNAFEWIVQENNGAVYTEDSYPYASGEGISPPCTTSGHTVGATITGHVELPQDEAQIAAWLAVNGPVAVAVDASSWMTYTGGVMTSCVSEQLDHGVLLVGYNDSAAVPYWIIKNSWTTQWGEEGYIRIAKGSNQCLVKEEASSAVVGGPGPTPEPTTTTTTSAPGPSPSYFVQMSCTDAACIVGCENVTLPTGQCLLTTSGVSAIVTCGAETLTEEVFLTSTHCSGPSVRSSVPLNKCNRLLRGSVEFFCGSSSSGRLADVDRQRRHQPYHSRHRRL
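Detergent-free condition (0.00005% Triton X-100) in acetate buffer pH 5.5 with DTT. 1.5 nM enzyme and compound were pre-mixed 15 min, then 2 uM Z-FR-AMC substrate added; reaction progress from fluorescence change between first and third reads (60 s).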
Cruzain inh Det – inhibitors of Trypanosoma cruzi cruzain with detergent; purified cruzain, Z-FR-AMC fluorescence, 0.01% Triton; Potency, µM, for the others: max response, negative = inhibition, actives largely listed as inhibitors; 200,000 tested, 0.43% active; AID 1478;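 note: plate controls were neutral wells for no effect and buffer without enzyme for full effect; nearly all actives have a fitted effect of over 40% in size; top concentration of the series not given in the record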
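Purified cruzain (1.5 nM final) was preincubated with compounds for 15 min at room temperature in 100 mM sodium acetate pH 5.5, 5 mM DTT, 0.01% Triton X-100. Reaction started with 2 uM Z-FR-AMC; AMC fluorescence change over 60 s gave activity.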
2A StopGo – lowers the luciferase signal of an FMDV 2A StopGo reporter. 410,000 tested, 1.2% active. AID 1159524. human cells with a luciferase reporter of 2A StopGo recoding; control for the full effect not named in the record. Potency, µM (doses to about 57.9 µM), for the others: at the highest dose signal change, negative = less light; active = well fitted falling curve with a large enough effect; inconclusive = small, poorly fitted or top-dose-only effect; inactive = no such curve, though single readings can be large or run the other way; tested in HEK293T cells; note: % is set by controls: 0 for no effect and ±100 for the full control effect; nearly all actives have a fitted effect of over 45% in size; luciferase light after 4 h
SARS PLP yeast – blocks SARS-CoV papain-like protease in a yeast assay; Potency, µM (top dose mostly 32.9 µM), for the others: at the highest dose activity, positive = growth rescue; S. cerevisiae expressing SARS-CoV PLpro, growth rescue; control for the full effect not named in the record; AID 485353; 330,000 tested, 0.19% active; active means well fitted rising curve with a large enough effect; inconclusive means small, poorly fitted or top-dose-only effect; inactive means no such curve, though single readings can be large or run the other way; note: 0% is about no effect; nearly all actives have a fitted effect of over 55% in size; growth read by luminescence after 48 h
MARV entry inh – blocks Marburg virus binding to or entry into cells. Marburg virus pseudotyped entry inhibition, cell reporter; control for the full effect not named in the record; about a third of the inactives were read at about 46 µM. Potency, µM (top dose mostly 37.8 µM), without a hit: top-dose activity change, negative = inhibition, usual class: inhibitors. 300,000 tested, 1.8% active. AID 540276; active = well fitted inhibition curve with a large enough effect; inconclusive = small, poorly fitted or top-dose-only effect, or effect the other way; inactive = flat fitted curve, though single readings scatter; tested in HEK293 cells; about a fifth of its hits are not listed in these tables; note: % is set by controls: 0 for no effect and ±100 for the full control effect; luciferase read-out
An asterisk follows results filed as active; ? = inconclusive; . = no result given; & = joins results of further samples; [ ] = remark or other dose. Unless noted, calls come from the whole dose curve; as a rule, active = well fitted curve in the direction sought with a large enough effect; inconclusive = small, poorly fitted or top-dose-only effect, or another doubt; inactive = no such curve, though single readings can be large; an effect the other way counts as inactive or inconclusive. Potency is the fitted concentration of half-maximal effect.

Structure,RE007 growth inh,Lassa entry inh,NS1 inh,Cruzain inh noDet,Cruzain inh Det,2A StopGo,SARS PLP yeast,MARV entry inh
CCN1C(=O)C2(C(C#N)=C(N)Oc3n[nH]c(COC)c32)c2ccccc21 (stereo not drawn),-3.3%,-8.7%,12.6%,5.2%,0.8%,.,0.9%,6.0%
Cc1ccc(NC(=O)N2CCC(C(=O)NCc3ccccc3)CC2)cc1,3.7%,?,2.9%,7.7%,-1.5%,12.9%,1.5%,25.9%
CN(C)c1ncc(CN2CCC(CO)(CCCc3ccccc3)CC2)s1,2.2%,.,-4.0%,.,.,-7.2%,-0.1%,.
CC(=O)c1cccc(N(C(=O)CNC(=O)c2cccs2)C(C(=O)NCC2CCCO2)c2ccccc2)c1 (stereo not drawn),-3.4%,-0.8%[46.1 µM],1.4%,.,.,3.4%,-1.4%,-0.9%[46.1 µM]
COC(=O)c1c(C(=O)OC)c(-c2ccc(Cl)cc2)n2c1CS(=O)(=O)C2,-10.7%,-15.6%,-4.3%,.,.,-12.9%,-3.1%,3.0%[46.1 µM]
CC(C)[C@H](NC(=O)C1CCN(S(=O)(=O)c2ccccc2)CC1)C(=O)NCc1ccccn1,12.6%,-4.1%[46.1 µM],17.5%,.,.,4.3%,-0.9%,-5.0%[46.1 µM]
O=[N+]([O-])/C(Cl)=C1\NCCN1Cc1ccc(Cl)nc1,1.0%,6.6%[46.1 µM],4.4%,.,.,-21.0%,0.2%,13.3%[46.1 µM]
Cn1c(=O)oc2cc(S(=O)(=O)NCc3ccc(F)cc3)ccc21,31.2%,3.5%,12.2%,.,.,29.8%,2.2%,24.2%
C=CCn1c(=O)c2ccccc2n2c(SCC(=O)NCc3cccs3)nnc12,0.4%,-1.7%,-4.5%,-3.6%,2.6%,-20.5%,0.3%,-0.5%
O=C(CSc1nc(O)c(C/C=C/c2ccccc2)c(=O)[nH]1)Nc1cccc(F)c1,.,-4.0%[46.1 µM],.,-8.5%,-15.2%,21.1%,.,4.8%[46.1 µM]
O=C(CCN1CCCC1)Nc1ccccc1,12.6%,-5.9%,-0.3%,1.8%,0.5%,-5.3%,-0.4%,4.1%
CCN1CCN(Cc2nc3cc(NC(=O)c4cccc([N+](=O)[O-])c4)ccc3n2CC)CC1,.,11.8%[46.1 µM],.,-1.0%,1.6%,3.3%,.,?
O=C(COc1cccc2ccccc12)NNC(=O)Nc1ccccc1,-3.9%,?,13.5%,?,-9.2%,.,-7.8%,3.8%
CCC(c1nnc(SC(C)C(=O)NC2CC2)n1-c1ccc(OC)cc1)N(C)C (stereo not drawn),6.9%,0.2%,.,.,.,-12.1%,0.9%,6.4%
Cc1cc(C)cc(NC(=S)N2CCC(NC(=O)c3ccco3)CC2)c1,8.2%,-2.1%,13.7%,.,.,3.7%,0.7%,1.4%[46.1 µM]
COc1ccccc1-c1cn(C(C)(C)C)nc1C,-0.4%,14.2%[46.1 µM],.,.,.,-23.3%,-7.7%,-2.8%[46.1 µM]
Cc1c(CCC(=O)O)c(=O)oc2c(C)c3occ(-c4ccc(Br)cc4)c3cc12,2.3%,-29.6%,-3.0%,.,.,-23.0%,0.8%,-0.1%
Cn1c(=O)c2sccc2n2c(CCC(=O)N3CCN(c4cccc(Cl)c4)CC3)nnc12,.,5.3%[46.1 µM],.,9.8%,-2.7%,-27.3%,.,7.6%[46.1 µM]
CCCCC(=O)NCCNc1nc2c(c(=O)n(C)c(=O)n2C)n1Cc1ccc(F)cc1,10.6%,9.2µM*,-4.1%,2.6%,-2.6%,-28.7%,2.7%,?
Cc1cc(NC(=O)CSc2ccccn2)cc(NC(=O)CSc2ccccn2)c1,-16.9%,?,-7.7%,.,.,1.0%,-0.7%,-26.9%[46.1 µM]
CCOC(=O)c1oc2ccccc2c1NC(=O)c1cc(OC)cc(OC)c1,-7.4%,-1.8%,-38.0%,?,-5.4%,-23.9%,3.3%,-19.8%
COC(=O)c1ccc(OCC(=O)c2ccc(C)c(C)c2)cc1,-20.8%,23.9%,-7.6%,-2.2%,-0.5%,18.5%,5.6%,?
CC(C)(C)c1ccc(OCC(=O)NNC(=O)Cc2cccs2)cc1,5.2%,1.6%,-8.6%,14.6%,5.0%,-4.3%,-0.2%,23.8%
CCc1c(C(=O)NNC(=S)NCC2CCCO2)csc1C (stereo not drawn),-17.4%,5.0%,9.8%,8.5%,0.0%,3.7%,14.9%,-3.0%
Cc1cccc(NC(=O)c2cccc([N+](=O)[O-])c2O)c1C,-21.7%,?,.,.,.,0.0%,.,?
CCCCNc1c(NC(C)=O)c(=O)oc2ccccc12,-3.4%,0.6%,3.0%,-7.7%,4.2%,0.1%,8.8%,-7.5%[46.1 µM]
O=C(CCc1nnc(CCC2CCCCC2)o1)NCCc1ccccn1,-0.6%,.,2.4%,.,.,-17.4%,-1.1%,.
Cc1ccc(CC(=O)NCC2CCCCC2)cc1,6.0%,.,-19.5%,.,.,52.9%[activator],-0.3%,.
CCc1ccc2c(c1)CCCN2C(=O)c1ccccc1C(=O)O,-7.0%,-6.1%,-7.9%,-5.0%,-1.3%,-1.8%,-2.3%,?
O=C(Nc1nnc(CCc2ccccc2)s1)c1ccc(F)cc1,0.0%,14.7%,-13.3%,.,.,-1.9%,8.8%,9.8%
CCn1c(Cc2ccc(OC)cc2)nnc1SCC(=O)NC1CC1,2.1%,6.3%,4.2%,.,.,-4.5%,-0.9%,?
O=[N+]([O-])c1ccc(C(O)CN2CCN(c3ccccc3)CC2)cc1 (stereo not drawn),-11.9%,13.7%[46.1 µM],2.4%,.,.,-0.6%,2.8%,?
COc1cc(NC(=O)C2C3C=CC(C3)C2C(=O)O)ccc1NC(=O)c1ccccc1 (stereo not drawn),-8.2%,-12.1%,4.5%,.,.,24.2%,3.0%,-0.8%
COc1ccccc1N/C=C/C(=C(C#N)C#N)N(C)C,-29.5%,-5.5%,-0.1%,.,.,39.0%[activator],-0.4%,?
O=C(NCCN1CCOCC1)c1ccccc1[N+](=O)[O-],34.7%,17.8%,17.8%,-1.4%,1.0%,0.9%,?,3.6%
O=C(CN1CCN(Cc2ccccc2)CC1)NC(c1ccccc1)c1ccccc1,4.7%,.,6.6%,.,.,-29.2%,8.5%,.
COc1ccc(-n2c(/C=C/c3ccccc3F)nc3cc(OC)c(OC)cc3c2=O)cc1Cl,.,19.7%[46.1 µM],.,-8.3%,0.9%,-12.2%,.,.
Cc1cc(C(=O)CN2CCCCC2)c(C)n1-c1ccc(F)cc1,1.2%,-11.2%,3.9%,-7.5%,-3.5%,14.3%,-7.7%,?
O=C(NC1CCCC1)C1CCN(C(=O)c2cc(Cl)ccc2Cl)CC1,2.1%,.,-5.6%,.,.,-7.8%,0.0%,-1.4%[46.1 µM]
O=S(=O)(Nc1ccc(F)cc1Cl)c1ccc(-c2cnc(C3CC3)o2)cc1,49.7%,.,-54.1%,.,.,-11.9%,-9.5%,.

Single entries from above.
2A StopGo result of Cc1cc(C(=O)CN2CCCCC2)c(C)n1-c1ccc(F)cc1 = 14.3%
RE007 growth inh result of CCCCNc1c(NC(C)=O)c(=O)oc2ccccc12 = -3.4%
Lassa entry inh result of COC(=O)c1ccc(OCC(=O)c2ccc(C)c(C)c2)cc1 = 23.9%

Carrying on:
Structure,RE007 growth inh,Lassa entry inh,NS1 inh,Cruzain inh noDet,Cruzain inh Det,2A StopGo,SARS PLP yeast,MARV entry inh
O=C(Nc1ccsc1C(=O)O)c1ccccc1,1.7%,31.8%[46.1 µM],2.4%,.,.,16.5%,-0.8%,?
Cc1ccc(C(=O)N2C3C=CC(C3)C2(C(F)(F)F)C(F)(F)F)cc1 (stereo not drawn),-22.6%,6.8%,-0.9%,-4.9%,1.7%,-29.5%,-1.5%,?
N#Cc1c2n(c(=S)n(-c3ccccc3)c1=O)CCCCC2,5.0%,-8.4%[46.1 µM],.,.,.,4.2%,27.8%,4.4%[46.1 µM]
CCOc1ccc(CCNC(=O)COC(=O)c2cc(OC)c(OC)cc2[N+](=O)[O-])cc1OCC,-6.2%,12.0%,.,.,.,-16.6%,2.6%,1.6%
Cc1cc(C)nc(SCC(=O)Nc2ccc(S(=O)(=O)Nc3cc(C)on3)cc2)n1,-8.2%,-3.9%,.,.,.,15.6%,.,-1.2%
O=C(COc1ncnc2cc(Cl)ccc12)c1ccc2c(c1)OCCO2,-1.8%,4.2%,5.0%,.,.,55.3%[activator],0.2%,10.4%
CCCNc1ncnc2c1cnn2C1CCCCO1 (stereo not drawn),-5.6%,?,.,.,.,54.1%[activator],.,29.4%
COc1ccc2o/c(=N\O)c(C(=O)Nc3ccc(C)cc3)cc2c1,2.7%,.,-40.9%,.,.,19.9%,-0.4%,.
COC(=O)c1cn(Cc2c(C)cc(C)cc2C)nn1,-7.6%,-5.3%,-1.5%,?,-1.7%,-17.2%,9.1%,?
COc1ccc(C(=O)NCc2cn3c(C)csc3n2)cc1OC,-17.7%,?,7.1%&16.4%,-15.6%,0.0%,.,6.1%,14.3%&14.3%

High-throughput results: PubChem BioAssay, National Center for Advancing Translational Sciences (NCATS)
